Bioassay records as filed in PubChem.
RGS16-Gao HTS: modulates binding between human RGS16 and Galphao. bead-based flow cytometry RGS16-Galphao binding, fluorescence; actives lie on both sides. 220,000 compounds, 0.38% hits. binding response (% of control), % at 10 µM;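 active means below 25% or above 175%, edge rows of some plates excepted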;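 further: Galphao activated by GDP with aluminum fluoride before binding; 100% = wells without compound and 0% = beads without RGS; some results beyond the cut were filed as inactive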
PKD1 kinase inh: inhibitors of human PKD1 kinase | 200,000 compounds, 0.056% hits | inhibition, %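 (about 10 µM by stock and volumes)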 | PKD1 kinase fluorescence polarization assay | AID 797;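 active means inhibition of 50% or more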;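 further: controls were vehicle for no effect and a reference inhibitor for full effect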
Target sequence (Q15139 whole entry, looked up): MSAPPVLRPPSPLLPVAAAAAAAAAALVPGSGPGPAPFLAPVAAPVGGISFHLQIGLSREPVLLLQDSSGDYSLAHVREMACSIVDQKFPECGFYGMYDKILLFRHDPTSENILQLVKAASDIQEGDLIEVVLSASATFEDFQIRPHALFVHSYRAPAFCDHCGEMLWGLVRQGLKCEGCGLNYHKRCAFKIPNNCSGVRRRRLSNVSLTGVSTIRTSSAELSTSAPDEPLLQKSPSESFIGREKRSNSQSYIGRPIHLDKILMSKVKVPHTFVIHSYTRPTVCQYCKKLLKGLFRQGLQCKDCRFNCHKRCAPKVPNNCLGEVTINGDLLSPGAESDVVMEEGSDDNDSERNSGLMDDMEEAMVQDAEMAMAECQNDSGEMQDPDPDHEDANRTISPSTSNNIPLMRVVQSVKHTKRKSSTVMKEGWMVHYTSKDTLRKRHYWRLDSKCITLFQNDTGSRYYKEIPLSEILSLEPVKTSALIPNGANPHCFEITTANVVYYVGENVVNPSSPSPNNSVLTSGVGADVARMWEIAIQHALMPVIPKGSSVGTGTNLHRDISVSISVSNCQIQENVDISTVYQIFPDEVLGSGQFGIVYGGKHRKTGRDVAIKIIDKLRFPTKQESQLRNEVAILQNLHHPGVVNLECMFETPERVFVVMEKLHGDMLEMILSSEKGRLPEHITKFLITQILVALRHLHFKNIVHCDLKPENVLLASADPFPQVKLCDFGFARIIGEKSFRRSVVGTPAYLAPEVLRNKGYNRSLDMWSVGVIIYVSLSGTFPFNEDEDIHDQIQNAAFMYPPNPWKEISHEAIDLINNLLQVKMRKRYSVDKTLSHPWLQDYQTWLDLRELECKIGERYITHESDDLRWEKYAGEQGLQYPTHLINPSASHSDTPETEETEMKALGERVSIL
HSV replic up: HSV replication enhancement; HSV replication augmentation in cells, fold increase; maximum fold increase; 220,000 compounds, 0.005% hits; AID 1956;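 active means peak rise of 1.5-fold or more in the series; inconclusive means self-fluorescent or not available for retest; tested in PC3 cells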;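 further: first round at 10 µM; read as green reporter fluorescence; hits show the peak of a series up to 25 µM; 1 = signal of infected wells without compound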
Insulin prom inh: TRM-6 insulin promoter activity inhibition | TRM-6 cells (human fetal islet line), insulin promoter-eGFP reporter, imaging; reporter expression induced with tamoxifen | inhibition, % at 2 µM | 130,000 compounds, 0.9% hits | AID 1273;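 active means inhibition above the mean plus 3 SD, with well images judged a real hit on visual review, cut at about 60% in these data, passing the limit was not always enough; inconclusive means inhibition over the cutoff but images rejected on review; inactive means inhibition not above the cutoff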
GALR2 ag: agonists of human galanin receptor 2 (GALR2); GALR2-expressing cells, agonist activation read-out; 140,000 compounds, 0.48% hits; activation, %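 (tested at 5 µM)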; AID 803;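 active means above mean plus 3 SD of all compounds, about 5% in these data, not always enough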;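 further: 0% = vehicle buffer wells and 100% = reference agonist at full effect; tested in CHO reporter cells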
Insulin prom inh cell count: further read-out of Insulin prom inh, marked with its call; normalized cell count, %; measured here: cell count, toxicity; reference of the scale not given here;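 cells exposed to compound for 48 h; stained nuclei by imaging scaled within each plate; lower means fewer cells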
HSV replic up primary fold: further read-out of HSV replic up, marked with its call; fold increase; compound at 10 µM; measured here: primary screen fold increase 10 uM; tested in PC3 cells;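 GFP signal in the first replicate; 1 = infected wells without compound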
Numbers without * were called inactive; i = inactive; ? = inconclusive; . = no result given.

SMILES | RGS16-Gao HTS | PKD1 kinase inh | HSV replic up | HSV replic up primary fold | Insulin prom inh | Insulin prom inh cell count | GALR2 ag
Cc1onc(-c2ccccc2Cl)c1C(=O)Nc1nn[nH]n1 | -3 | -10 | i | 0.91 | . | . | -2.9
Cc1cc(-c2csc(N)n2)c(C)n1-c1ccccc1 | 94 | -1 | i | 1 | 7 | 142 | -1.2
COc1ccc(NC(=O)COc2ccc(C(=O)NC3CCCc4ccccc43)cc2OC)cc1 (centres undefined) | 95 | -5 | i | 0.81 | -120 | 102 | -1.8
O=C(Nc1nc2c(s1)COc1ccccc1-2)c1cccs1 | 102 | 0 | i | 0.66 | . | . | -3.1
COc1ccc(CCNC(=O)CCN2C(=O)c3cccc4cccc(c34)C2=O)cc1OC | 105 | 0 | i | 0.88 | . | . | .
CCn1c(SCc2cc(=O)[nH]c3ccccc23)nc2c1c(=O)n(C)c(=O)n2C | . | -7 | . | . | 30 | 29 | 0.2
O=C(OCn1nnc2ccccc2c1=O)c1cccnc1Cl | 91 | 3 | i | 0.94 | 26 | 67 | -1.3
Cc1ccccc1N=C1c2cc([N+](=O)[O-])ccc2-c2ncccc21 | 126 | 0 | i | 1 | . | . | -1.7
COc1cc(NC(=O)c2ccco2)c(OC)cc1NC(=O)CCC(=O)Nc1cc(C)cc(C)c1 | 97 | -5 | i | 0.75 | 23 | 88 | -1.6
Cc1ccc(CNC(=O)C2CC2c2ccccc2)cc1 (centres undefined) | 98 | 0 | i | 0.93 | -7 | 106 | -1.1
COC(=O)c1ccc2c(c1)NC(=O)C(N(CC(C)C)CC(C)C)S2 (centres undefined) | 102 | . | i | 0.96 | . | . | .
CC(C)OC(=S)N/C(=N\S(=O)(=O)c1ccccc1)c1ccccc1 | 102 | 0 | i | 0.85 | 4 | 129 | -2.0
CCC(CO)NCc1ccccc1OC(C)C (centres undefined) | 96 | 2 | i | 0.98 | . | . | .
COc1cccc(C2c3c(oc4cc(C)c(C)cc4c3=O)C(=O)N2CCCN(C)C)c1 (centres undefined) | 106 | 0 | i | 0.98 | . | . | -1.5
CCCc1cc2c(=O)c(-c3ccc4c(c3)OCCO4)coc2cc1OC(=O)c1ccco1 | 97 | 0 | i | 0.94 | -18 | 155 | 0.1
COc1cccc(NC(=O)c2ccccc2-c2nc(-c3ccc(Cl)cc3)no2)c1 | 100 | 3 | i | 0.98 | -29 | 74 | -1.0
C=C(C)Cn1c(SCC(=O)N/N=C/c2ccccc2)nc2ccccc2c1=O | 102 | -12 | i | 0.86 | 52 | 90 | -1.1
CCc1ccccc1NC(=O)CSc1nnc([C@@H](NC(=O)OC(C)(C)C)C(C)C)o1 | 102 | -7 | i | 0.95 | . | . | -1.5
FC(F)(F)c1cccc(Nc2nc(N3CCCC3)nc(N3CCCC3)n2)c1 | 98 | 2 | i | 0.87 | . | . | .
CC(C)(C)CC(C)(C)c1ccc(OCC(=O)N/N=C/c2ccc(S(=O)(=O)O)o2)cc1 | 103 | . | i | 0.91 | . | . | .
O=C(/C=C/c1ccco1)Nc1ccc(Cl)c(S(=O)(=O)N2CCOCC2)c1 | 84 | . | i | 1.1 | . | . | .
CC(C)C1OC2(C)OC(=N)C1(C#N)C(C#N)(C#N)C2c1ccccc1 (centres undefined) | 68 | -7 | ? | . | . | . | 0.1
Cc1nc(N2N=C3/C(=C/c4ccc(F)cc4)CCCC3C2c2ccc(F)cc2)sc1C(=O)N(C)C (centres undefined) | 106 | -7 | . | . | -21 | 125 | 0.1
O=C(c1ccc(-n2cnnn2)cc1)N1CCCCC1 | 109 | 1 | i | 0.86 | . | . | -1.8
COc1ccccc1NC(=O)Cn1c(=O)sc2ccccc21 | 100 | 5 | i | 0.84 | . | . | -1.4
CCN(CC)c1ccc(C=Nc2ccc(C)cc2)c(O)c1 | 81 | 5 | i | 0.99 | 56 | 157 | 0.7
CC(=O)Nc1sc(N/N=C/c2ccc(O)cc2)nc1-c1ccc(C)cc1 | 102 | . | i | 0.91 | . | . | .
Cc1cc(C)c2c(n1)sc1c(=O)n(Cc3ccc(F)cc3)cnc12 | 94 | . | i | 0.91 | . | . | .
CCSc1nc(O)c(Cc2ccccc2)c(=O)[nH]1 | 100 | -7 | i | 0.89 | 46 | 71 | -0.9
S=C(NCc1ccccc1)NNc1nc2ccccc2[nH]1 | 86 | -5 | i | 1.1 | . | . | .
Cc1ccc(S(=O)(=O)N/N=C\c2cccnc2)cc1 | 99 | -14 | i | 0.95 | 3 | 100 | -1.4
COCCCNC(=O)c1c(-c2ccccc2)noc1C | 97 | -7 | i | 1.1 | -50 | 104 | -1.1
O=c1[nH][nH]c(-c2ccccc2)c1C=Nc1ccc(F)cc1F | 103 | -5 | i | 0.98 | . | . | .
COc1ccc(S(=O)(=O)Nc2c(C(=O)O)[nH]c3ccccc23)c(OC)c1 | 99 | 0 | i | 0.99 | -17 | 229 | -1.5
CCCCN(C(=S)Nc1ccc(F)cc1)c1c(N)n(CCC)c(=O)[nH]c1=O | 100 | 5 | i | 1 | . | . | .
COc1cccc(C(=O)CN(C(=O)c2ccc(Cl)c(Cl)c2)N2C(=O)C3CCCCC3C2=O)c1 (centres undefined) | 100 | -6 | i | 0.83 | 14 | 99 | -0.2
O=C(C1CCN(S(=O)(=O)c2ccc(F)cc2)CC1)N1CC=C(c2ccccc2)CC1 | 100 | -3 | i | 0.82 | . | . | -1.6
CN(C)CC(CCC(CN(C)C)C(=O)c1ccccc1)C(=O)c1ccccc1 (centres undefined) | 99 | . | i | 0.67 | . | . | .
CCO[C@H]1OC(C(=O)N2CCCCCCC2)=C[C@@H](C)[C@@H]1CCCO | 96 | 10 | . | . | . | . | .
COc1ccc(CC(=O)Nc2sc(Cc3ccccc3)c(C)c2C(N)=O)cc1 | 106 | -7 | i | 0.86 | . | . | -3.0

Full records as entered above. Order of screens: RGS16-Gao HTS	PKD1 kinase inh	HSV replic up	HSV replic up primary fold	Insulin prom inh	Insulin prom inh cell count	GALR2 ag
COc1ccc(NC(=O)COc2ccc(C(=O)NC3CCCc4ccccc43)cc2OC)cc1 (centres undefined) is listed with 95	-5	i	0.81	-120	102	-1.8
Cc1cc(C)c2c(n1)sc1c(=O)n(Cc3ccc(F)cc3)cnc12 is listed with 94	.	i	0.91	.	.	.

New compounds follow.
SMILES | RGS16-Gao HTS | PKD1 kinase inh | HSV replic up | HSV replic up primary fold | Insulin prom inh | Insulin prom inh cell count | GALR2 ag
Cc1cccc(C)c1NC(=O)CC(NCc1ccco1)C(=O)O (centres undefined) | 102 | -5 | . | . | -5 | 118 | 0.5
Cc1ccc(S(=O)(=O)N2CCCCC2)cc1NC(=O)COC(=O)C1CC2C=CC1C2 (centres undefined) | 203 | 1 | i | 1.1 | . | . | -0.7
COC(=O)C1=C(C)N(c2cc(C)cc(C)c2)/C(=C/c2ccc(O)cc2)C1=O | 103 | -10 | i | 0.97 | 0 | 87 | .
O=C(Nc1ccccc1)Nc1csc2ccccc12 | 97 | . | i | 0.93 | . | . | .
CCN(CC)c1ccc(NC(=O)COC(=O)/C=C/c2nc3ccccc3s2)cc1 | 103 | 4 | i | 0.98 | . | . | 0.3
CN(C)C=C1C(=O)c2ccccc2C1=O | 120 | 1 | i | 1.1 | -43 | 125 | -1.7
Oc1ccc(N=Nc2ccc3c(c2)OCO3)c2ccccc12 | 78 | . | i | 0.57 | . | . | .
CCCSc1nnc2nc(C)cc(C)n12 | 111 | -8 | i | 0.79 | . | . | -5.1
O=C(CCN1CCCCCC1)Nc1cccc(F)c1 | 101 | -5 | i | 1 | -6 | 61 | -0.4
O=C(O)c1ccc2c(c1)N(Cc1ccccc1F)C(=O)c1ccccc1S2=O (centres undefined) | 102 | 2 | i | 0.9 | . | . | -0.1
CCN1C(=O)/C(=C2/C(=O)N3c4c(cc(OC(C)=O)cc42)C(C)=CC3(C)C)SC1=S | 107 | -1 | i | 0.84 | 53 | 121 | -2.1
Cc1cc(C)nc(NS(=O)(=O)c2ccc(N/C=C/C(=O)c3ccc(Cl)cc3)cc2)n1 | 99 | 11 | i | 1 | . | . | 0.5
CCCn1c(N)c(C(=O)CN2CCc3ccccc3C2)c(=O)n(C)c1=O | 91 | 0 | i | 1.1 | . | . | .
COc1ccccc1CNC(=O)C(C)NS(=O)(=O)c1ccccc1 (centres undefined) | 95 | -7 | i | 0.99 | -65 | 99 | -2.4
CCN(CC)C(=O)N1CCc2ccccc2C1CN1C(=O)c2ccccc2C1=O (centres undefined) | . | -6 | i | 0.92 | -10 | 137 | -0.6
COc1ccc(C(=O)NNC(=O)CN2CCN(c3nc(-c4ccccc4)cs3)CC2)cc1 | 76 | -7 | i | 0.99 | 17 | 71 | 1.0
CCOC(=O)C1=C(C)NC(=O)NC1c1ccccc1 (centres undefined) | 104 | -1 | i | 0.98 | 0 | 122 | -1.0
CCOC(=O)c1cnc2ccc(OCC)cc2c1N1CCN(c2ccccc2)CC1 | 103 | 3 | i | 0.99 | -11 | 198 | 2.6
CCN(CC)C(=O)c1ccccc1NS(C)(=O)=O | 116 | -2 | i | 1.1 | . | . | .
O=C(CN1CCCC1)Nc1ccccc1Sc1ccc(Cl)cc1 | 103 | -2 | i | 0.99 | -25 | 98 | .
COc1ccc(/C=N/N=C2/C(=O)Nc3ccccc32)cc1O | 96 | 5 | i | 1.1 | . | . | .
CCC(CC)C(=O)c1c[nH]c(C(=O)NCc2cccs2)c1 | 111 | -5 | i | 0.87 | -31 | 131 | .
O=C1CCc2cc(S(=O)(=O)N3CCN(c4ccccc4F)CC3)ccc2N1 | 100 | -8 | i | 1 | 0 | 155 | -3.6
O=C1c2oc3ccc(Cl)cc3c(=O)c2C(c2ccco2)N1CCN1CCOCC1 (centres undefined) | 99 | -1 | . | . | . | . | -0.2
C=CCn1c(CCCNC(=O)CCC)nc2ccccc21 | 98 | -5 | i | 0.93 | -67 | 97 | -2.0
COc1ccc(C2CC(=O)C(C=NCCN3CCOCC3)=C(O)C2)cc1 (centres undefined) | 103 | 14 | i | 0.88 | . | . | -0.9
CC(=O)Sc1nc(-c2ccccc2)[nH]c1S(=O)(=O)c1ccc(C)cc1 | 78 | 5 | i | 1.1 | -74 | 127 | .
CCOC(=O)CCc1c(C)nc(SCCN2CCCC2)c(C#N)c1C | 105 | 2 | i | 0.93 | . | . | 0.1
CCOC(=O)N/N=C1\CCc2ccccc21 | 101 | -4 | i | 0.97 | 14 | 162 | -0.8
Cc1nc(SC(C(N)=O)c2ccccc2)c(C#N)c(C)c1C (centres undefined) | 98 | . | i | 1 | . | . | .
O=C(c1ccc(NC(=O)C2(c3ccccc3)CCOCC2)cc1)N1CCOCC1 | 104 | -2 | i | 1 | 74 | 23 | -2.4
CCN(CC(=O)Nc1ccc(N2CCOCC2)cc1)Cc1nc2ccccc2c(=O)[nH]1 | 104 | 3 | i | 0.86 | -69 | 151 | -0.5

A different layout for part of the listing above.
smiles: COc1cccc(NC(=O)c2ccccc2-c2nc(-c3ccc(Cl)cc3)no2)c1
  RGS16-Gao HTS: 100	PKD1 kinase inh: 3	HSV replic up: i	HSV replic up primary fold: 0.98	Insulin prom inh: -29	Insulin prom inh cell count: 74	GALR2 ag: -1.0
smiles: O=C(O)c1ccc2c(c1)N(Cc1ccccc1F)C(=O)c1ccccc1S2=O (centres undefined)
  RGS16-Gao HTS: 102	PKD1 kinase inh: 2	HSV replic up: i	HSV replic up primary fold: 0.9	Insulin prom inh: .	Insulin prom inh cell count: .	GALR2 ag: -0.1
smiles: COc1ccccc1CNC(=O)C(C)NS(=O)(=O)c1ccccc1 (centres undefined)
  RGS16-Gao HTS: 95	PKD1 kinase inh: -7	HSV replic up: i	HSV replic up primary fold: 0.99	Insulin prom inh: -65	Insulin prom inh cell count: 99	GALR2 ag: -2.4
smiles: Cc1ccccc1N=C1c2cc([N+](=O)[O-])ccc2-c2ncccc21
  RGS16-Gao HTS: 126	PKD1 kinase inh: 0	HSV replic up: i	HSV replic up primary fold: 1	Insulin prom inh: .	Insulin prom inh cell count: .	GALR2 ag: -1.7
